# Sa RN4220 lethal: growth inhibition of S. aureus RN4220, primary screen, OD600; 16 h; inhibition, % (no concentration beside the values); hit rate 0.33% among 330,000; AID 1259311, 2017;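 active means z-score of -3 or lower and OD600 up to 0.18 on both plates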;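 further: plate controls were untreated cells for no effect and reference antibiotic for full effect; stock transfer was 100 nL into about 80 µL; one replicate is shown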
# BJeLR viability: MLPCN primary cell-based screen for lethality selective to Ras in HRASV12 cells. inhibition, % (test concentration not listed). BJeLR (HRASV12) viability, CellTiter-Glo ATP luminescence, 48 h; reference of the scale not given here. hit rate 0.17% among 300,000. AID 1554, 2009;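 active means replicate mean above 50%; inconclusive means above 50% but judged a plate artefact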;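 further: 50 nL library stock added to about 25 µL; numbers are from one replicate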
# Mtb hypoxia rep: PubChem AID 1159583. fluorescence inhibition, % (test concentration not listed). hit rate 0.1% among 300,000. M. tuberculosis hypoxia-regulated fluorescent reporter, fluorescence;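 active means 35 to 45% if threefold the growth effect, above 45% if 1.5-fold the growth effect; inactive means the rest, general growth blockers included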;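 further: wells of about 50 µL received 100 nL stock; 0% = vehicle wells and 100% = reference inhibitor wells; whole bacteria with a GFP reporter of the hypoxia response; strong numbers were not always called active; many hits fall short of the cut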
# Sa ugtP lethal: growth inhibition of ugtP-null S. aureus, primary screen, RN4220 ugtP deletion, OD600. hit rate 0.54% among 330,000. growth inhibition, % (test concentration not listed). AID 1259309, 2017. 16 h; some inactives read as strong as hits;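 active means z-score under -3 and OD600 up to 0.15 on both plates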;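 further: plate controls were untreated wells for no effect and antibiotic for full effect; wells of about 80 µL received 100 nL stock; the first replicate is given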
# Bead autofluor: counter-screen for toxin protease inhibitors: compound fluorescence; compound autofluorescence counterscreen, microsphere flow cytometry; hits give high values; fluorescence intensity (test concentration not listed); hit rate 3.1% among 360,000; AID 624483;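 active means at least 3 SD above the mean of all compounds, about 16000 in these data; inconclusive means too few beads counted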;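 further: 100 nL of 1 mM stock went into each well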
# PrP UTR inh: inhibition of PrP 5' UTR reporter expression; cell-based PrP 5' UTR mRNA reporter, plate reader; inhibition, % (no concentration beside the values); hit rate 0.35% among 340,000; AID 488862, 2010;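 active means every replicate at 50% or more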;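 further: 0 = median of the neutral control wells; tested in H4 reporter cells; numbers are from one replicate; inactives centre near -14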
# Mtb hypoxia rep growth: also measured in Mtb hypoxia rep; calls as there; growth inhibition, %; measured here: M. tuberculosis growth (absorbance);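 0% = vehicle and 100% = reference antibiotic; read after six days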
# Numbers without * were called inactive; u = inconclusive; x = not tested or not shown.
molecule,Sa RN4220 lethal,BJeLR viability,Mtb hypoxia rep,Mtb hypoxia rep growth,Sa ugtP lethal,Bead autofluor,PrP UTR inh
COC(=O)c1ccc(C2c3[nH]c4ccccc4c3C[C@H]3C(=O)N(C4CC4)CC(=O)N23)cc1 (stereo not given in full),-0.5,0,-12,4,1,2878,3
Cc1ccc(S(=O)(=O)N2CCC(C(=O)OCC(=O)N(C)C3CCS(=O)(=O)C3)CC2)cc1C (stereo not given),5.2,5,-1,11,6,3664,0
O=C(Nc1ccc(Cl)cc1)Nc1ccccc1NS(=O)(=O)c1cccs1,-6.1,-2,9,1,-11,2532,-9
Cc1ccnc(NC(=S)N2CCN(c3cccc(C(F)(F)F)c3)CC2)c1,x,-7,x,x,x,6502,2
COc1ccc(S(=O)(=O)N(C)c2ccc(C(=O)NCc3ccco3)cc2)cc1OC,1.5,-6,-4,-5,-1,5786,-10
CCN1CCC(N2CCN(c3ccc(F)cc3)CC2)CC1,4.5,1,14,0,7,3697,-24
CC(=O)Nc1ccc(S(=O)(=O)NCCc2csc(-c3cccnc3)n2)cc1,2.9,-10,5,4,14,5404,-35
CC(=O)Nc1ccc(NC(=O)COC(=O)c2cc(S(=O)(=O)N3CCCC3)ccc2O)cc1,4.0,x,13,10,6,4256,-10
COc1ccc(-n2cc(C(=O)O)c3ccccc3c2=O)cc1,4.2,-1,2,5,7,16517*,-31
COc1ccccc1OC(=O)c1ccc(S(=O)(=O)N(C)C)cc1,3.6,-5,18,5,-4,6508,-40
O=C(c1cc2c(s1)-c1ccccc1OC2)N1CCN(c2ccccn2)CC1,1.1,0,x,x,-4,5394,-7
CCOc1ccc(-n2ccnc(SCC(=O)NCc3cccc(OC)c3)c2=O)cc1,1.0,-3,-3,-2,4,x,-20
Cc1cc2cc(CN(Cc3ccc4c(c3)OCO4)C(=O)c3cnccn3)c3nnnn3c2cc1C,4.5,-6,4,2,0,3303,-6
CN(C)c1cc(-c2ccc(Br)cc2)oc(=O)c1Cl,13,2,-18,-10,1,8585,x
c1ccc(Nc2nc(-c3ccccn3)cs2)cc1,6.7,2,0,5,-8,3918,-90
Cn1c(=O)c2ccccc2n2c(=S)[nH]nc12,8.1,-14,-15,-16,4,5790,8
CCc1cccc(NC(=O)CCCN2C(=O)NC(C)(C)C2=O)c1,1.4,x,14,2,5,3879,-37
Cc1ccc(OCc2nnc(SCC(N)=O)n2N)cc1,2.8,-7,4,5,-1,5445,-14
O=C(Nc1ccc2nc(-c3cccnc3)[nH]c2c1)C12CC3CC(CC(C3)C1)C2,0.3,-2,x,x,-6,4139,-16
CCCn1[nH]cc(SC)c(=O)c1=O,2.5,3,4,2,0,16432*,-20
COc1ccc(SCC(Cc2ccccc2)N2CCC(C(C)(C)C)CCC2=O)cc1 (stereo not given),1.5,x,-1,4,6,x,x
Cc1csc(NC(=O)/C=C/c2ccco2)n1,-1.9,-13,6,10,-3,11290,-50
O=C(Nc1sc2c(c1C(=O)NC1CCCCC1)CCC2)c1ccco1,15,4,3,10,-35,10667,-29
O=C(CCS(=O)(=O)c1cccc2nonc12)NCCc1ccccc1,4.3,-11,14,29,-1,4268,3
Cc1cc(NCc2ccccc2)nc2ccccc12,9.5,-2,-8,1,-8,3120,-7
CC(=O)Nc1ccc2c(c1)N(C(C)=O)c1ccccc1CC2,5.6,2,8,8,5,3849,-17
c1ccc2c(c1)ncn2CCCOc1ccc2c(c1)CCC2,6.8,1,4,8,-8,10134,-15
O=C1CN(C(=O)c2ccccc2F)c2ccccc2N1,1.2,-16,0,4,-4,9145,-16
COC(=O)c1c(NC(=O)CSc2nnc(-c3cccnc3)n2Cc2ccco2)sc(C)c1C,6.6,9,19,15,1,5755,-32
CCOc1ccc(S(=O)(=O)N(C)c2ccc(OCC(=O)NCc3ccco3)cc2)cc1,-0.4,-9,x,x,-2,4487,-12
COc1cccc(C2c3[nH]c4ccccc4c3C[C@H]3C(=O)N(c4ccccc4C(=O)N4CCCC4C(=O)O)C(=O)N23)c1 (stereo not given in full),0.0,-1,x,x,9,5465,-9
O=C(Cn1cnc2ccccc2c1=O)Nc1ccc2c(c1)CCC2,0.8,2,3,14,2,23574*,-31
COC(=O)c1ccc(Oc2nc(Nc3ccc(C)c(C)c3)nc(N(C)C)n2)cc1,-2.5,-2,-1,17,7,24525*,-7
Cc1c(C#N)c(NC(=O)C(C)C)n(Cc2ccccc2)c1C,5.2,-10,-7,-11,8,3370,-22
O=C(Cc1ccccc1[N+](=O)[O-])NCCCN1CCOCC1,2.0,-5,14,4,2,3666,-10
Cc1ccc(NC(=O)c2cc(S(=O)(=O)N3CCOCC3)cn2C)cc1Cl,-13,-1,7,11,0,5426,-25
Cc1ccc(S(=O)(=O)N2CCN(C(=O)Cc3sc(C)nc3-c3ccc(F)cc3)CC2)c(C)c1,0.9,-5,7,1,2,5214,0
CCc1ccc2oc(=O)cc(CN3CCN(Cc4ccccc4)CC3)c2c1,1.1,3,4,5,10,3606,-22
N=C(N)SCc1ccc(Cl)cc1Cl,2.9,-3,3,0,10,2033,-18
Cc1ccc(-c2nc(CSCC(=O)NCc3cccnc3)c(C)o2)cc1,-4.1,2,-10,-7,-5,u,0

# A run of entries taken from the entries so far:
molecule,Sa RN4220 lethal,BJeLR viability,Mtb hypoxia rep,Mtb hypoxia rep growth,Sa ugtP lethal,Bead autofluor,PrP UTR inh
COc1ccc(SCC(Cc2ccccc2)N2CCC(C(C)(C)C)CCC2=O)cc1 (stereo not given),1.5,x,-1,4,6,x,x
Cc1csc(NC(=O)/C=C/c2ccco2)n1,-1.9,-13,6,10,-3,11290,-50

# The results go on:
molecule,Sa RN4220 lethal,BJeLR viability,Mtb hypoxia rep,Mtb hypoxia rep growth,Sa ugtP lethal,Bead autofluor,PrP UTR inh
S=c1[nH]nc(-c2ccco2)n1N=Cc1ccccc1Cl,13,x,5,2,-10,x,x
NS(=O)(=O)c1ccc(CCNC(=O)CN2CCCCCC2)cc1,-5.9,-4,-6,13,-16,3273,-25
N#Cc1cc2c(nc1SCC(=O)Nc1ccc(Cl)cc1)C1CCN2CC1,12,-3,5,0,37,10124,-31
COCc1nnc(SCC(=O)NCc2ccccc2)n1-c1ccccc1,2.2,-14,6,8,-4,12480,-27
S=C(NCc1ccccc1)Nc1ccc2ccccc2c1,-3.3,x,9,4,-3,6153,-46
CCCCCCn1c(CN2CCN(C(=O)OCC)CC2)nc2c1c(=O)n(C)c(=O)n2C,1.9,-2,-3,-1,-4,7848,-68
COCCCNC(=O)CN(CCc1ccccc1)S(=O)(=O)c1ccc(OC)cc1,5.2,-4,10,3,5,3644,-12
O=C(N/C=C/n1cnc2cc(C(F)(F)F)ccc21)c1ccccc1,-1.0,-1,-8,2,-1,3907,5
O=C(C1=C[C@H](c2ccc3c(c2)OCO3)C[C@H](OCc2ccc(CO)cc2)O1)N1CCCCCCC1,x,-4,x,x,x,3119,-5
C/C(=N\Nc1ncc(Br)cn1)c1cccc([N+](=O)[O-])c1,x,2,x,x,x,3671,-26
CCN(CCCNC(=O)C1c2ccccc2C(=O)N(CCOC)C1c1ccc(F)cc1)Cc1ccccc1 (stereo not given),7.7,x,-5,6,2,3198,-1
CCOc1ccc(-c2ccc(SCC(=O)Nc3nnc(C)s3)nn2)cc1,0.6,-1,11,5,3,3975,-60
Cc1c(C(=O)O)oc2ccc(S(=O)(=O)NCCC3=CCCCC3)cc12,-0.4,1,1,4,-1,10984,-1
N#CCN(C(=O)COC(=O)CCCNC(=O)c1ccc(Cl)cc1)c1ccccc1,-0.2,x,3,-7,11,3589,-6
O=S1(=O)CCOC2Cc3ccccc3C2N1Cc1ccccc1F (stereo not given),13,x,6,9,14,x,x
CC(C)(C)N1CC23C=CC(CC2C1=O)O3 (stereo not given),1.9,x,16,6,0,x,x
COc1ccccc1NC(=O)c1ccc([N+](=O)[O-])cc1[N+](=O)[O-],-2.4,1,-16,6,6,2523,-1
Cc1ccc(C(=O)NCCN2C3=NCC(C(C)C)N3CC2Cc2ccc(O)cc2)cc1Br (stereo not given),0.5,x,1,21,2,x,x
CCOC(=O)C1CCN(Cc2cc(=O)oc3c(C)c(C)ccc23)CC1,1.8,8,1,3,12,3830,-8
COc1ccc(COC(=O)C2CCN(S(=O)(=O)c3ccc(OC)c(OC)c3)CC2)cc1,0.0,x,3,2,1,6335,13

# Profiles, looked up by structure. Order of values: Sa RN4220 lethal | BJeLR viability | Mtb hypoxia rep | Mtb hypoxia rep growth | Sa ugtP lethal | Bead autofluor | PrP UTR inh
# Listed for `CCOC(=O)C1CCN(Cc2cc(=O)oc3c(C)c(C)ccc23)CC1` = 1.8 | 8 | 1 | 3 | 12 | 3830 | -8
# Listed for `N#Cc1cc2c(nc1SCC(=O)Nc1ccc(Cl)cc1)C1CCN2CC1` = 12 | -3 | 5 | 0 | 37 | 10124 | -31
# Listed for `COCc1nnc(SCC(=O)NCc2ccccc2)n1-c1ccccc1` = 2.2 | -14 | 6 | 8 | -4 | 12480 | -27
# Listed for `Cc1ccc(C(=O)NCCN2C3=NCC(C(C)C)N3CC2Cc2ccc(O)cc2)cc1Br` (stereo not given) = 0.5 | x | 1 | 21 | 2 | x | x

# Other entries
molecule,Sa RN4220 lethal,BJeLR viability,Mtb hypoxia rep,Mtb hypoxia rep growth,Sa ugtP lethal,Bead autofluor,PrP UTR inh
CCOc1ccccc1C1CC(c2ccccc2)Nc2nc(N)nn21 (stereo not given),0.4,3,x,x,-6,5233,-2
O=C(CSc1nnc2scc(-c3ccccc3)n12)N1CCCc2ccccc21,10,-2,11,-1,6,9544,x
COc1ccccc1N1C(=O)C2C3C=CC(CC3)C2C1=O (stereo not given),3.6,-7,3,9,-2,4435,-13
Cc1ccc(C)c(N(CC(=O)N2CCc3ccccc3C2)S(C)(=O)=O)c1,0.6,-10,4,-7,9,5504,-10
COC(=O)COc1coc(CN2CCN(c3cccc(Cl)c3)CC2)cc1=O,0.5,-1,-1,12,-2,5962,-2
O=c1[nH]cnc2sc3c(c12)CN(Cc1ccccc1)CC3,3.6,-10,13,2,4,5205,-12
CCCCNC(=S)NNC(=O)c1csc2c1CCC(C)C2 (stereo not given),5.1,-5,7,8,0,10316,x
Cc1cnc(C(=O)Nc2ccccc2-n2cccc2)cn1,-2.4,-3,x,x,-2,4577,1
COc1ccc(-c2nc3ccccc3c(=O)n2CCOc2cc(C)ccc2C)cc1,-5.2,-4,4,11,26,2616,-11
Cc1occc1-c1nnc(SCC(=O)c2ccc3c(c2)OCCO3)n1CC1CCCO1 (stereo not given),2.7,-4,-11,6,4,3812,10
CC(=O)c1ccc(NC(=O)CN2CCN(CC(=O)Nc3ccc(C(C)=O)cc3)CC2)cc1,4.0,8,-6,-6,4,3048,1
CCCCNC(=O)COC(=O)CCC(=O)c1cccs1,2.3,-5,2,3,-3,2136,-9
Cc1ccc(C)c(NC(=O)C[n+]2ccccc2)c1,3.5,-4,1,4,1,x,-8
Cc1ccccc1-n1nnnc1SCc1csc(-c2ccccc2)n1,7.2,-19,8,6,18,3886,-38
Cc1sc2nc(CSCC(=O)Nc3c(F)cccc3F)[nH]c(=O)c2c1C,2.5,4,8,2,4,u,6
CCOC(=O)Cn1c(=O)oc2cc(S(=O)(=O)N3CCN(C(=O)OCC)CC3)ccc21,6.2,7,-2,-6,9,4484,3

# A different layout for part of the listing above:
COC(=O)COc1coc(CN2CCN(c3cccc(Cl)c3)CC2)cc1=O
  Sa RN4220 lethal: 0.5	BJeLR viability: -1	Mtb hypoxia rep: -1	Mtb hypoxia rep growth: 12	Sa ugtP lethal: -2	Bead autofluor: 5962	PrP UTR inh: -2

O=c1[nH]cnc2sc3c(c12)CN(Cc1ccccc1)CC3
  Sa RN4220 lethal: 3.6	BJeLR viability: -10	Mtb hypoxia rep: 13	Mtb hypoxia rep growth: 2	Sa ugtP lethal: 4	Bead autofluor: 5205	PrP UTR inh: -12

CCCCNC(=S)NNC(=O)c1csc2c1CCC(C)C2 (stereo not given)
  Sa RN4220 lethal: 5.1	BJeLR viability: -5	Mtb hypoxia rep: 7	Mtb hypoxia rep growth: 8	Sa ugtP lethal: 0	Bead autofluor: 10316	PrP UTR inh: x

Cc1cnc(C(=O)Nc2ccccc2-n2cccc2)cn1
  Sa RN4220 lethal: -2.4	BJeLR viability: -3	Mtb hypoxia rep: x	Mtb hypoxia rep growth: x	Sa ugtP lethal: -2	Bead autofluor: 4577	PrP UTR inh: 1

# Random draw from the library (roughly 4% active in at least one column).
